Mtb growth = Mycobacterium tuberculosis H37Rv growth inhibition, cell based, confirmatory dose response (AID 1949); 1.6% of 100,000 active; M. tuberculosis H37Rv growth inhibition; one-dose inhibition, % at 10 µg/mL; IC50 in µg/mL for titrated hits; most inactive calls were filed without a number and no value below 0 was filed;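 active means confirmed in a dose series; inconclusive means about 50% or more but not retested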;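 further: bacteria grown 7 days with compound before Alamar blue readout; 0% = untreated bacteria and 100% = reference antibiotic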
An asterisk follows results filed as active; i = inactive; ? = inconclusive. Not all compounds are listed. The share of hits here may be higher or lower than overall.

The opening 6 compounds as a preview:
SMILES | Mtb growth
Cc1ccc(S(=O)(=O)N(C2=CC=CCC2Cc2ccccc2)C(F)F)cc1 (stereo not given) | 2%
COc1ccc(OC)c(NC(=S)N2CCN(c3cccc(C)c3C)CC2)c1 | i
Cc1ccc(C(=O)Nc2nncs2)cc1C | i
O=S(=O)(Cc1ccccc1)c1ccc(Cl)cc1 | i
COc1ccc(CCNS(=O)c2ccc3ccccc3c2)cc1OC (stereo not given) | 2%
COC(=O)COc1ccc(S(=O)(=O)NCc2ccncc2)cc1 | i

The whole of this part, from the first entry:
SMILES | Mtb growth
Cc1ccc(S(=O)(=O)N(C2=CC=CCC2Cc2ccccc2)C(F)F)cc1 (stereo not given) | 2%
COc1ccc(OC)c(NC(=S)N2CCN(c3cccc(C)c3C)CC2)c1 | i
Cc1ccc(C(=O)Nc2nncs2)cc1C | i
O=S(=O)(Cc1ccccc1)c1ccc(Cl)cc1 | i
COc1ccc(CCNS(=O)c2ccc3ccccc3c2)cc1OC (stereo not given) | 2%
COC(=O)COc1ccc(S(=O)(=O)NCc2ccncc2)cc1 | i
Cc1c(Cl)ccc(OCCCN2CCCC(C)C2)c1C (stereo not given) | 3.2µg/mL*
COc1ccc(OCc2nc3c4c5c(sc4ncn3n2)C(C)(C)NC(C)(C)C5)cc1 | i
Cc1ccc(NS(=O)(=O)c2ccc(Cl)cc2)c(NS(=O)(=O)c2ccc(Cl)cc2)c1 | i
Cc1ccc(-c2nn(C)c(=O)c3ccccc23)cc1S(=O)(=O)N1CCCCC1 | 3%
O=c1c(-c2nncn2-c2ccccc2)c(C(F)(F)F)oc2cc(O)ccc12 | 1%
COCCNCCCCOc1ccc(Cl)c(Cl)c1 | i
Cc1cnn(C(=O)c2oc3ccccc3c2C)c1 | i
COC(=O)c1ccc(NC(=O)c2c(Cl)ccc(Cl)c2OC)cc1 | i
COc1ccc(C(=O)Nc2ccc(C(=O)NCC3CCCO3)cc2)c(OC)c1OC (stereo not given) | i
OCCCCNCc1ccccc1OCc1ccc(F)cc1 | i
COc1ccccc1OCCCCN(C)Cc1ccccc1 | 1%
CCC(C(=O)OCc1ccccc1)n1cnc2sc(C(=O)Nc3ccccc3OC)c(C)c2c1=O (stereo not given) | 9%
CCOc1ccc(C(=O)NC(=S)Nc2ccccc2C(C)CC)cc1[N+](=O)[O-] (stereo not given) | i
CCC(=O)c1ccc(OCc2ccccc2)c(OC)c1 | i
Cc1cc(I)ccc1NC(=O)c1ccc2c(c1)OCCO2 | i
COc1cc(CNCC(C)NCc2ccc(O)c(OC)c2)ccc1O (stereo not given) | 2%
Cc1ccc(-c2csc3ncn(Cc4ccc(C(=O)O)cc4)c(=O)c23)cc1C | i
CN1CCN(c2ncnc3scc(-c4ccc(Cl)cc4)c23)CC1 | i
Cn1cnnc1SCC(=O)NC(c1ccccc1)c1ccccc1 | i

4 consecutive records out of the list so far, for reference:
SMILES | Mtb growth
COc1cc(CNCC(C)NCc2ccc(O)c(OC)c2)ccc1O (stereo not given) | 2%
Cc1ccc(-c2csc3ncn(Cc4ccc(C(=O)O)cc4)c(=O)c23)cc1C | i
CN1CCN(c2ncnc3scc(-c4ccc(Cl)cc4)c23)CC1 | i
Cn1cnnc1SCC(=O)NC(c1ccccc1)c1ccccc1 | i

Sorted by length of the SMILES (rising): some entries from above
SMILES | Mtb growth
O=c1c(-c2nncn2-c2ccccc2)c(C(F)(F)F)oc2cc(O)ccc12 | 1%
Cc1ccc(-c2nn(C)c(=O)c3ccccc23)cc1S(=O)(=O)N1CCCCC1 | 3%
CCC(C(=O)OCc1ccccc1)n1cnc2sc(C(=O)Nc3ccccc3OC)c(C)c2c1=O (stereo not given) | 9%

(cont.)
SMILES | Mtb growth
CCCC(=O)Nc1ccc(Cl)c(NC(=O)c2cccc(Br)c2)c1 | i
O=C(NCCc1ccc(Cl)cc1)Nc1cccc(Cl)c1 | ?
O=C(c1ccc(C#CC2(O)CCCCC2)cc1)N1CCOCC1 | i
O=C(Nc1cccc(OC(F)F)c1)C(F)(F)F | i
CCn1cc(Br)c(C(=O)Nc2ccc(C(=O)OC(C)C)cc2)n1 | 0%
Cc1cc(C)cc(C(=O)NN2CCN(C)CC2)c1 | i
Cc1sc(NC(=O)c2ccc(Cl)s2)c(C(N)=O)c1-c1ccc(C(C)(C)C)cc1 | i
CCCCNC(=O)c1ccccc1NC(=O)c1ccccc1OC | 3%
CC(=O)Oc1ccc2c(c1C)CCCC2 | 0%
N#Cc1ccccc1NC(=O)c1cc(Br)ccc1Cl | i
CC(NC(=O)CCC(=O)NC(C)c1ccccc1)c1ccccc1 (stereo not given) | i
NC(=O)c1c(-c2ccc(Cl)cc2Cl)csc1NC(=O)Cc1ccc(Br)cc1 | i
COc1ccc(OC)c(N(CC(=O)Nc2cccc(Br)c2)S(=O)(=O)c2ccc(OC)c(OC)c2)c1 | i
O=C(CCC1CCCC1)N1CCN(Cc2ccccc2Cl)CC1 | i
COc1ccc(OC)c(N(CC(=O)Nc2ccccc2OC)S(=O)(=O)c2ccc(C)cc2)c1 | 0%
CCOC(=O)C1=C(c2ccccc2)Nc2ncnn2C1c1ccccn1 (stereo not given) | i
Cc1c(C(=O)N2CCN(c3cccc(C(F)(F)F)c3)CC2)oc2ccccc12 | i
O=C1c2cccc3cccc(c23)C(=O)N1CC1CCN(S(=O)(=O)c2cccs2)CC1 | i
COC(=O)CCC(=O)Nc1cccc(Cl)c1Cl | i
CCOc1ccccc1N1CCN(S(=O)(=O)c2ccc(C3CCCCC3)cc2)CC1 | i
COCc1cc(C)nc2sc(C(=O)N3CCN(c4ccccc4)CC3)c(N)c12 | i
Cc1ccc(-c2noc(COc3cc(C)cc(C)c3)n2)cc1 | 1%
CCOC(=O)C1CCCN(C(=S)Nc2ccc(Nc3ccccc3)cc2)C1 (stereo not given) | i
CCNc1cc(N2CCN(C(=O)c3ccc(C)cc3)CC2)ccc1[N+](=O)[O-] | i
Cc1ccc2nc(N/C(N)=N/C(=S)Nc3ccc(F)cc3)nc(C)c2c1 | 49%

(listing goes on)
SMILES | Mtb growth
O=C(Nc1sc2c(c1C(=O)Nc1ccccc1)CCCCC2)c1cccnc1 | 1%
CN1C(=O)C(O)(CC(=O)c2cccc(-n3cccc3)c2)c2ccccc21 (stereo not given) | i
COC(=O)c1c(NC(=O)C2CC3CCC2C3)sc2c1CCC2 (stereo not given) | 2%
Cc1cccc(OCC(=O)NC(=S)Nc2sc(C)c(C)c2C#N)c1C | i
CCN(CC)CCCNC(=O)c1ccc(C(=O)NCCCN(CC)CC)cc1 | i
Cc1ccc(S(=O)(=O)N(CC(=O)Nc2cccc(N(C)S(C)(=O)=O)c2)c2ccc(F)cc2)cc1 | i
CC1(C)C(=O)C2(CCCCC2)C(=O)OC1c1ccc(F)cc1Cl (stereo not given) | 1%
OCc1cc(Cl)ccc1OCc1cccc(F)c1 | 6%
O=C(c1ccc(N2CCN(S(=O)(=O)c3ccccc3)CC2)c([N+](=O)[O-])c1)N1CCOCC1 | i
COC(=O)c1ccc(NC(=O)CSc2nnc(SCc3ccc(OC)cc3)s2)cc1 | i
Cc1ccc(-c2nc3ccccc3o2)cc1NC(=O)c1cccc(OCc2ccccc2)c1 | i
CCN1CCN(CCCCOc2cccc(Cl)c2)CC1 | i
CC(Oc1ccccc1F)C(=O)Nc1ccc(Br)cc1 (stereo not given) | i
O=C1CC(Cc2ccccc2)C(=O)N1c1ccccc1F (stereo not given) | 4%
Cc1ccc(NCc2ccccc2NS(=O)(=O)c2ccc(C)cc2)cc1 | i
CNC(=O)c1cc2c(=O)n3cccc(C)c3nc2n(C(C)C)c1=N | i
CCn1c(SC)nc2sc3c(c2c1=O)CCc1ccccc1-3 | i
CCOC(=O)c1cc(Cc2ccccc2)sc1NC(=S)NNC(=O)c1cccnc1 | 3%
Cc1c(C(=O)Nc2nnc(Cc3ccc(Cl)cc3)s2)cccc1[N+](=O)[O-] | i
CCOC(=O)C1=C(C)NC(=O)NC1c1cc(I)c(O)c(OC)c1 (stereo not given) | i
CS(=O)(=O)Nc1ccc2c(c1)C(=O)NC2=O | i
CC12CCC(C(=O)N(CCC#N)CCC#N)(OC1=O)C2(C)C (stereo not given) | i
O=C(NC(=S)Nc1ccc(N2CCOCC2)cc1)c1cccc(I)c1 | i
Cn1ccc(CNC(=S)Nc2cccc3ccccc23)n1 | i
O=S(=O)(Nc1cccc(NS(=O)(=O)c2ccc(F)cc2)c1)c1ccc(F)cc1 | i

Grouped by structure: the compounds so far with a nitro group on carbon.
SMILES | Mtb growth
CCOc1ccc(C(=O)NC(=S)Nc2ccccc2C(C)CC)cc1[N+](=O)[O-] (stereo not given) | i
CCNc1cc(N2CCN(C(=O)c3ccc(C)cc3)CC2)ccc1[N+](=O)[O-] | i
O=C(c1ccc(N2CCN(S(=O)(=O)c3ccccc3)CC2)c([N+](=O)[O-])c1)N1CCOCC1 | i
Cc1c(C(=O)Nc2nnc(Cc3ccc(Cl)cc3)s2)cccc1[N+](=O)[O-] | i

Later entries
SMILES | Mtb growth
CCOc1ccc(NC(=S)NC(NC(=O)c2ccccc2Cl)C(Cl)(Cl)Cl)cc1 (stereo not given) | i
O=Cc1cccn1Cc1cccc2ccccc12 | i
COc1cc(C2C3=C(CC(C)(C)CC3=O)N(C)C3=C2C(=O)CC(C)(C)C3)ccc1OCc1ccccc1 | i
Cc1cc(=O)[nH]c(SC(C)C(=O)O)n1 (stereo not given) | 0%
CC1CCC(N(CCCN)Cc2ccco2)CC1C (stereo not given) | 1%
CC(C)c1nnc(N2C(=O)C(O)=C(C(=O)c3cccs3)C2c2ccccc2)s1 (stereo not given) | i
Brc1ccccc1OCCOCCN1CCNCC1 | i
Cn1nnc(-c2ccc(C(=O)O)cc2)n1 | i
CCn1c(SCC(=O)NC(C)c2ccccc2)nnc1-c1ccc(C)cc1 (stereo not given) | i
CCOc1ccc(NC(=S)Nc2cc(OC)c(OC)c(OC)c2)cc1 | 41%
O=C(CSc1nc(-c2ccccc2)cc(=O)[nH]1)Nc1ccc(Cl)c(Cl)c1 | i
Cn1c(S(=O)(=O)CC(N)=O)nc2ccccc21 | i
CCOc1ccccc1C1NC(=O)NC(C)=C1C(N)=O (stereo not given) | i
CSc1ccccc1NC(=O)CN(c1ccc(C)cc1)S(=O)(=O)c1ccc(C)cc1 | i
CCOC(=O)c1c(NC(=O)CSc2nc(C)cs2)sc(C)c1C | i
COc1ccc(Cl)cc1NC(=S)NNC(=O)c1ccc(Br)o1 | 5%
CN1CCN(NC(=O)COc2ccc(C(C)(C)C)cc2Br)CC1 | i
CCC(C)(C)c1ccc(OCC(=O)Nc2ccncc2)cc1 | i
CCCN(CCC)S(=O)(=O)c1cc(OC)c(Cl)cc1OC | 7%
C=CCNC(=O)COc1ccccc1Br | i
CCOc1ccc(NC(=O)CSc2nnc(NC(=O)c3cccc(C)c3)s2)cc1 | i
CCOC(=O)NCc1cc(-c2nn(C)c(=O)c3ccccc23)ccc1C | 2%
Cc1c(Cl)cccc1NC(=O)c1ccc(C(C)C)cc1 | i
O=C(CN(Cc1c(F)cccc1Cl)S(=O)(=O)c1ccc(Cl)cc1)NCc1ccncc1 | i
Cc1ccc(C(=O)Nc2ccccc2-c2ccccc2)cc1[N+](=O)[O-] | 4%

Next compounds follow:
SMILES | Mtb growth
N#CCCN(CCC#N)C(=O)C1c2ccccc2Oc2ccccc21 | i
O=C(c1cc(-c2cccc(Br)c2)nc2ccccc12)n1cccn1 | 3%
O=C(Cc1ccccc1)Nc1ccccc1C(=O)O | 8%
COc1cccc(COc2cc(C)cc3oc(=O)c4c(c23)CCCC4)c1 | i
CCCC(=O)Nc1sc2c(c1C(=O)OCC)CCCCC2 | i
CCN(Cc1ccccc1)C(=O)C(C)Oc1ccccc1 (stereo not given) | i
Cc1cccc(-n2c(=O)c(=O)[nH]c3cc([N+](=O)[O-])ccc32)c1 | i
CCOc1ccc(CCNC(=O)c2ccccc2NC(=O)c2ccc(C)cc2)cc1OCC | i
CS(=O)(=O)N(CC(=O)NC1CCCCCC1)c1ccccc1 | i
COC(=O)c1sccc1NC(=O)c1cc(-c2ccncc2)nc2ccc(C)cc12 | i
CNC(=O)C(=O)Nc1ccc(C)cc1C | i
Cc1ccc(-c2nc(SC3CC(=O)N(c4cccc(C(F)(F)F)c4)C3=O)n[nH]2)cc1 (stereo not given) | i
COc1ccc(OC)c(NC(=O)c2c(NCc3cccs3)sc3c2CCC3)c1 | i
N#CC1=C2Sc3ccccc3N2CC1=O | i
CCCC(=O)Nc1cccc(NC(=S)NC(=O)c2cc(Cl)ccc2OC)c1 | i
Cc1cccc(OCC(=O)NC(=S)Nc2ccc3c(c2)Cc2ccccc2-3)c1C | i
CCc1ccccc1N1CCN(S(=O)(=O)c2cc(C)ccc2OC)CC1 | i
COc1cc(C(=O)O/N=C(\N)c2ccncc2)cc(OC)c1OC | i
c1ccc2nc3c(nc2c1)c1ccccc1n3CCN1CCOCC1 | 14%
CC(=O)Nc1ccc(S(=O)(=O)Nc2ccc(S(=O)(=O)Nc3ccc(C)c(Cl)c3)cc2)cc1 | i
COC(=O)c1sc(NC(=S)Nc2cc(C(F)(F)F)cc(C(F)(F)F)c2)c(C(=O)OC)c1C | i
COC(=O)c1ccsc1NC(=O)CN1c2cccc3cccc(c23)S1(=O)=O | i
Cc1ccccc1CN1C(=O)C(O)(CC(=O)c2ccncc2)c2cc(Cl)ccc21 (stereo not given) | i
N#Cc1c(NC(=O)CSc2nnc(Cc3ccccc3)o2)sc2c1CCCC2 | i
Cc1cccc(/C(N)=N/OC(=O)c2c(-c3ccccc3Cl)noc2C)c1 | 4%
COc1cccc(OCC(O)CN2CCN(c3cc(Cl)ccc3C)CC2)c1 (stereo not given) | 21%
COc1ccc(C)cc1NC(=O)C(OC)c1ccccc1 (stereo not given) | i
O=C(Nc1ccccc1-c1nc2ccccc2s1)c1cccc(OCc2ccccc2)c1 | i
CCCSc1nc2c(c(=O)[nH]1)C(c1cccc(Cl)c1Cl)C1=C(CCCC1=O)N2 (stereo not given) | i
CCOc1ccc(CCNC(=O)c2cc(OC)c(OC)c(OC)c2)cc1OCC | i

Screens as filed in PubChem BioAssay.
